Assay outcomes deposited in PubChem by several laboratories.
GALR2 ag = GALR2 receptor agonists, primary screen, cell-based | Galanin receptor type 2 (Homo sapiens), O43603 | GALR2-expressing cells, agonist activation read-out | activation, %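 (tested at 5 µM)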 | 140,000 compounds, 0.48% hits | AID 803, 2007;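 active means above mean plus 3 SD of all compounds, about 5% in these data, not always enough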;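 further: 0% = vehicle buffer wells and 100% = reference agonist at full effect; tested in CHO reporter cells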
Target sequence (O43603 whole entry, looked up): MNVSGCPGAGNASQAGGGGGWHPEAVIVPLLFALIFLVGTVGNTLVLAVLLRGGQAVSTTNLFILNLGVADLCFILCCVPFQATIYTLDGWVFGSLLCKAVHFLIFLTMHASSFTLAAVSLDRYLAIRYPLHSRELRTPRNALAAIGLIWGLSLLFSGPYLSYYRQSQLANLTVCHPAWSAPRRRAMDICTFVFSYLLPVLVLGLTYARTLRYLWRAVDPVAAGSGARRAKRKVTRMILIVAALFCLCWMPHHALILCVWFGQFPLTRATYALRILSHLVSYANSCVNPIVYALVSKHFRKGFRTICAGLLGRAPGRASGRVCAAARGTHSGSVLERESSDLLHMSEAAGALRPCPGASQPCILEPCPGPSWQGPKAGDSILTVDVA
HSV replic up = enhancers of HSV replication in host cells, fold increase, host cell viability. HSV replication augmentation in cells. maximum fold increase. 220,000 compounds, 0.005% hits;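 active means peak rise of 1.5-fold or more in the series; inconclusive means self-fluorescent or not available for retest; tested in PC3 cells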;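 further: first round at 10 µM; read as green reporter fluorescence; hits show the peak of a series up to 25 µM; 1 = signal of infected wells without compound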
Insulin prom inh = inhibitors of insulin promoter-driven GFP, primary screen, imaging, TRM-6 cells (human fetal islet line), eGFP reporter, cell count; reporter expression induced with tamoxifen; inhibition, % at 2 µM; 130,000 compounds, 0.9% hits; AID 1273, 2008;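 active means inhibition above the mean plus 3 SD, with well images judged a real hit on visual review, cut at about 60% in these data, passing the limit was not always enough; inconclusive means inhibition over the cutoff but images rejected on review; inactive means inhibition not above the cutoff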
PKD1 kinase inh = inhibitors of human PKD1 kinase, biochemical, fluorescence polarization | inhibition, %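 (about 10 µM by stock and volumes)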 | PKD1 kinase fluorescence polarization assay | 200,000 compounds, 0.056% hits | AID 797, 2007 | Serine/threonine-protein kinase D1 (Homo sapiens), Q15139;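 active means inhibition of 50% or more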;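 further: controls were vehicle for no effect and a reference inhibitor for full effect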
RGS16-Gao HTS = modulators of RGS16 binding to Galphao, primary screen, biochemical, human proteins, multiplexed bead flow cytometry | Regulator of G-protein signaling 16 (Homo sapiens) + Guanine nucleotide-binding protein … | bead-based flow cytometry RGS16-Galphao binding, fluorescence; actives lie on both sides | binding response (% of control), % at 10 µM | 220,000 compounds, 0.38% hits;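 active means below 25% or above 175%, edge rows of some plates excepted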;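 further: Galphao activated by GDP with aluminum fluoride before binding; 100% = wells without compound and 0% = beads without RGS; some results beyond the cut were filed as inactive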
Target sequence (O15492 whole entry, looked up): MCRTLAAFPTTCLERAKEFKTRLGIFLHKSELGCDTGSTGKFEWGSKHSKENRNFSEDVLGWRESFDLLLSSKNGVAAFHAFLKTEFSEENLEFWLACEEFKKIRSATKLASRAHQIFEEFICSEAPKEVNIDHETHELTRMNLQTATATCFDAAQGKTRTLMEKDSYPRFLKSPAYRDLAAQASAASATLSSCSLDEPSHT
Target sequence (P09471 whole entry, looked up): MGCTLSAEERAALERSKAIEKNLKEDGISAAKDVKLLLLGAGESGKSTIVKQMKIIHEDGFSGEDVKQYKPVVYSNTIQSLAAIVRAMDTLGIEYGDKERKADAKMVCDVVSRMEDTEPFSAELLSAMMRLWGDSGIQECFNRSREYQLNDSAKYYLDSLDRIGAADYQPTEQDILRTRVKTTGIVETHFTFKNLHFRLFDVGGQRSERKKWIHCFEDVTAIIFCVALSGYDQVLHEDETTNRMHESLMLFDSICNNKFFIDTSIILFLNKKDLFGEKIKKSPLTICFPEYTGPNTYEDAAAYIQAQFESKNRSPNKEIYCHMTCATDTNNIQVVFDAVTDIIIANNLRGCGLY
Insulin prom inh cell count = also measured in Insulin prom inh; calls as there; normalized cell count, %; measured here: cell count, toxicity; reference of the scale not given here;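 cells exposed to compound for 48 h; stained nuclei by imaging scaled within each plate; lower means fewer cells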
HSV replic up primary fold = second read-out of HSV replic up, no call of its own (marks repeat the call); fold increase; compound at 10 µM; measured here: primary screen fold increase 10 uM; tested in PC3 cells;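 GFP signal in the first replicate; 1 = infected wells without compound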
The depositor's hits bear a star; i = inactive; u = inconclusive; x = not tested or not shown; & = joins results of further samples.

Molecule | GALR2 ag | HSV replic up | HSV replic up primary fold | Insulin prom inh | Insulin prom inh cell count | PKD1 kinase inh | RGS16-Gao HTS
Cc1sc(-c2ccncc2)nc1OC(=O)c1ccc(F)cc1F | x | i | 1 | x | x | 2 | 100
COc1nc(N/N=C/c2ccc(C)cc2)nc(N2CCCCC2)n1 | -1.4 | i | 0.98 | 37 | 116 | -12 | 107
Cc1ccc(/C=C/C(=O)Nc2cccnc2)o1 | -0.4 | i | 1.1 | x | x | -5 | 86
CCOC(=O)c1cccc(NC(=O)/C=C/c2cccc([N+](=O)[O-])c2)c1 | -2.0 | i | 0.85 | x | x | -1 | 104
Cc1ccc(NC(=O)CC(=O)c2ccc([N+](=O)[O-])cc2)cc1S(=O)(=O)Nc1cccc(Cl)c1 | x | i | 0.87 | 56 | 90 | 2 | 102
CNc1nc(NCCOC23CC4CC(CC(C4)C2)C3)nc(OCC(F)(F)F)n1 | 0.0 | i | 0.91 | 38 | 56 | -10 | 102
COc1ccccc1N1CCN(C(=O)CN(C)S(=O)(=O)c2ccc3c(c2)c(=O)n(C)c(=O)n3C)CC1 | x | i | 0.98 | -86 | 109 | 5 | 104
CCn1c2ccccc2c2cc(NC(=O)c3cccc([N+](=O)[O-])c3C)ccc21 | -0.5 | i | 0.62 | 47 | 54 | 14 | 101
C1CCC(Nc2nc3nonc3nc2N2CCSCC2)C1 | x | i | 1.1 | x | x | -7 | 110
Cc1ccc(C)c(NC(=S)N(C)CCO)c1 | x | i | 0.98 | 21 | 131 | -1 | 99
COCCNc1cc(N)c([N+](=O)[O-])cc1[N+](=O)[O-] | 0.2 | i | 0.95 | -12 | 98 | -12 | 111
CCC(CC)C(=O)Nc1ccccc1-n1cccc1 | -0.9 | i | 0.88 | x | x | 0 | 107
O=C(Cn1cc2c(n1)CCCCC2)NCc1ccccn1 | x | u | x | x | x | 3 | 103
NC(=O)CC[C@@H]1NC(=O)[C@@H]2CCCN2C(=O)c2cc([N+](=O)[O-])cc(I)c2NCCC[C@@H](C(N)=O)NC1=O | -0.8 | i | 0.92 | 36 | 116 | -5 | 102
CCOc1ccc(-c2nnn(CC(=O)NCc3ccc(C)cc3)n2)cc1 | x | i | 1 | -47 | 86 | -4 | 105
COC(=O)CC1C(=O)NCCN1C(=S)Nc1ccccc1 (stereo not given) | -0.2 | i | 1 | 20 | 110 | -11 | 108
COc1ccc(OCc2ccc(C(=O)O)cc2)cc1 | -1.5 | i | 1 | x | x | -4 | 90
O=C(O)CC(=O)NC12CC3CC(CC(C3)C1)C2 | 1.3&-1.6 | i | 1&0.7 | -3&14 | 121&59 | -1&-9 | 98&102
Cc1c(Cl)cccc1NC(=O)C1CCN(S(C)(=O)=O)CC1 | x | i | 0.96 | x | x | -7 | 78
Cc1ccc(C(=O)c2c(C)oc3c2C(=O)C(=O)c2ccccc2-3)cc1 | -1.4 | i | 0.85 | -11 | 112 | 5 | 75
O=C1CCN(S(=O)(=O)c2ccccc2)C2CCCCC12 (stereo not given) | -1.4 | i | 1.1 | 12 | 120 | -8 | 102
O=C(COC(=O)C1CCN(S(=O)(=O)c2cccs2)CC1)NCc1ccc(F)cc1 | x | i | 0.99 | x | x | x | 97
O=C(CN1CCCC1)Nc1ccccc1Sc1ccccc1 | x | i | 1 | -18 | 51 | -8 | 103
CCOC(=O)Cn1c(=N)n(Cc2ccccc2)c2ccccc21 | -3.6 | i | 0.93 | x | x | 3 | 96
CC(=O)c1sccc1NC(=O)c1ccccc1C(=O)O | x | i | 1.2 | x | x | x | 107
O=C(Nc1ccc(N2CCOCC2)cc1N1CCOCC1)c1ccc([N+](=O)[O-])cc1 | -0.5 | x | x | 50 | 78 | -15 | 102
O=C1CCCN1CCCNc1ncnc2c1cnn2-c1ccc(Cl)cc1 | -0.7 | i | 0.83 | x | x | 6 | 89
COc1ccc(C(=O)c2ccc(N3CCOCC3)c([N+](=O)[O-])c2)cc1 | x | i | 0.99 | 13 | 80 | 6 | 95
Oc1c(/C=N/c2ccccn2)sc2ccccc12 | x | i | 1.2 | x | x | x | 91
COc1ccc(-c2noc(CCCC(=O)NCc3ccco3)n2)cc1OC | -0.9 | i | 0.9 | x | x | -1 | 87
COc1ccc(C2=NO[C@@H]3[C@@H]4C[C@@H]([C@H]5C(=O)N(C)C(=O)[C@@H]45)[C@H]23)cc1 | -1.8 | i | 1 | 6 | 87 | -4 | 100
Cc1ccc(S(=O)(=O)N2CCCCC2)cc1NS(=O)(=O)c1cccc(C(=O)O)c1 | -1.3 | i | 0.93 | 44 | 70 | 3 | 135
Cc1ccc(CNC(=O)C(C)OC(=O)c2ccco2)cc1 (stereo not given) | -2.6 | i | 1.2 | 14 | 105 | -1 | 102
Cc1ccc(S(=O)(=O)c2c(N)n(NC(=O)C3CC3)c3nc4ccccc4nc23)cc1 | -0.7 | i | 0.96 | x | x | -9 | 81
CCCCn1c(-c2ccncc2)nc2c1c(=O)[nH]c(=O)n2CC(C)C | -1.9 | i | 0.95 | 29 | 135 | -2 | 95
COc1ccc(NC(=O)CCC2CCCCC2)cc1S(=O)(=O)N1CCCCC1 | -0.7 | i | 1 | x | x | 4 | 66
O=C(Nc1nnc(CCN2CCCCC2)s1)c1cccc(Cl)c1 | x | i | 0.91 | x | x | x | 101
COc1ccccc1CNC(=O)c1ccc(N2CCOCC2)c([N+](=O)[O-])c1 | x | i | 0.93 | -25 | 86 | -3 | 93
CCN(CC)c1ccc(/C=N/N=C(c2ccccc2)c2ccccc2)c(O)c1 | 0.1 | i | 0.97 | -43 | 75 | -6 | 109
O=C(Cc1cccs1)N1CCN=C1SCc1ccc(Br)cc1 | x | i | 0.84 | x | x | -4 | 102
Cc1cc(OCC(=O)Nc2cc(-c3nn4c(C)nnc4s3)ccc2C)ccc1Cl | -2.9 | i | 1.4 | x | x | -6 | 102
Cc1nn(-c2ccccc2)cc1C(c1c(N)[nH]c(=S)[nH]c1=O)c1c(N)[nH]c(=S)[nH]c1=O | x | i | 0.94 | x | x | -2 | 103
Nc1cc2c(cc1[N+](=O)[O-])OCO2 | x | i | 1.2 | x | x | -1 | 95
Cc1c(C(=O)OCC(=O)N(CCC#N)c2ccccc2)oc2c1ccc1ccccc12 | -1.6 | i | 0.87 | -73 | 169 | 7 | 100
CCOC(=O)/C=C1\SCC(=O)N1CC(=O)c1ccc[nH]1 | 0.5 | i | 0.75 | -22 | 114 | -1 | 110
CCCC(c1nnnn1Cc1ccco1)N1CCN(c2ccccc2)CC1 (stereo not given) | x | i | 0.96 | x | x | -1 | 106
CCOc1ccc(NC2=NCC(=O)N2CCc2ccccc2)cc1 | -3.6 | i | 0.63 | 24 | 94 | 3 | 85
CC1=C(C(=O)OCC(C)C)[C@]23C(=O)c4ccccc4[C@@]2(O1)OC(N)=C3C#N | -2.0 | i | 1.1 | 16 | 85 | -3 | 80
CCOC(=O)C1=CSC2=NS(=O)(=O)CCN12 | -2.0 | i | 1 | 27 | 62 | 8 | 98
CCOc1ccc(NC(=O)CN2C(=O)C3CC=CCC3C2=O)cc1 (stereo not given) | -2.1 | i | 0.89 | -148 | 105 | 3 | 100
CCc1nnc(NC(=O)c2ccc(S(=O)(=O)N3CCCCC3C)cc2)s1 (stereo not given) | -1.1 | i | 1.1 | x | x | 6 | 107
CCOC(=O)c1cc(-c2ccc(Cl)cc2)nc2c1c(C)nn2CCC#N | -0.4 | i | 0.99 | -26 | 174 | -2 | 110
C=CCNCCOc1cccc(Br)c1 | -1.2 | i | 1.1 | -24 | 118 | -2 | 101
COc1cccc(OC)c1C(=O)NC(C)C12CC3CC(CC(C3)C1)C2 (stereo not given) | -2.0 | i | 0.62 | 13 | 62 | 4 | 59
NNC(=O)c1cccc(COc2cccc(Br)c2)c1 | -1.5 | i | 1 | 54 | 22 | -7 | 107
COc1ccc(-n2c(C)cc(C(=O)Cn3nc(C(=O)O)c4ccccc4c3=O)c2C)cc1 | -0.4 | i | 0.95 | -5 | 70 | -1 | 130
CO/C([O-])=N/c1c[n+](-c2ccc(Cl)cc2)no1 | -1.2 | i | 1 | 9 | 102 | -2 | 102
Cc1ccc2nc(NC(=O)c3ccco3)sc2c1 | -2.8 | i | 0.87 | -41 | 64 | 1 | 100
CC1CCCN(C(=O)Cn2c(=O)oc3ccccc32)C1 (stereo not given) | -1.1 | i | 0.97 | x | x | -7 | 100
Cc1cc2cc(C(c3nnnn3Cc3ccco3)N3CCc4ccccc43)c(=O)[nH]c2cc1C (stereo not given) | 0.1 | i | 1.5 | x | x | -2 | 88

Next entries
mol	GALR2 ag	HSV replic up	HSV replic up primary fold	Insulin prom inh	Insulin prom inh cell count	PKD1 kinase inh	RGS16-Gao HTS
O=C(COc1ccccc1F)NCc1ccc(-n2cccc2)cc1	x	x	x	38	86	-7	98
COC(=O)CSc1nc2cc3c(cc2cc1C)OCCO3	-0.4	i	0.84	x	x	-7	114
COc1ccc(OC)c(C2C(C(N)=O)=C(C)Nc3nc(-c4cccc(Cl)c4)nn32)c1 (stereo not given)	-0.7	i	0.89	-25	93	-1	103
COCC(=O)N/N=C(\C)CC(=O)NCc1ccco1	x	i	0.83	15	155	-2	110
CCCCOC(=O)CSC1=C(C#N)C(c2cccnc2)C(C(=O)OCC)=C(c2ccccc2)N1 (stereo not given)	x	i	1.1	x	x	-1	104
Cc1ccc(-n2nnnc2-c2nc3ccccc3s2)cc1	-0.1	i	0.78	-12	116	-1	105
Cc1nnsc1C(=O)N/N=C/c1ccc2ccccc2c1O	-2.1	i	0.99	x	x	-8	123
COc1ccc(Nc2nc(C)cc(C)c2C(N)=O)c(OC)c1	-1.9	i	0.76	25	95	1	100
CCCCC(c1nnnn1CC1CCCO1)N1CCN(c2ccccc2)CC1 (stereo not given)	x	i	0.89	-75	174	0	105
O=S(=O)(/C=C/c1ccccc1)NC1CCCCCCC1	-0.2	i	1	-23	104	-7	105
O=c1cc(CN2CCN(c3ccc(F)cc3)CC2)nc2sccn12	-3.2	i	1	1	91	-6	100
CCc1ccc(N2CN=c3s/c(=C\c4ccccc4)c(=O)n3C2)cc1	x	i	0.96	x	x	x	86
CCC(C)NC(=O)Cn1cc2c(n1)CCC(C)C2 (stereo not given)	-3.1	i	0.95	x	x	-6	103
Oc1ccc(C(=S)N2CCCCC2)cc1Cl	-2.5	i	0.74	31	73	-10	97

Gathered by group, the entries above with fluorine (five)
mol	GALR2 ag	HSV replic up	HSV replic up primary fold	Insulin prom inh	Insulin prom inh cell count	PKD1 kinase inh	RGS16-Gao HTS
Cc1sc(-c2ccncc2)nc1OC(=O)c1ccc(F)cc1F	x	i	1	x	x	2	100
CNc1nc(NCCOC23CC4CC(CC(C4)C2)C3)nc(OCC(F)(F)F)n1	0.0	i	0.91	38	56	-10	102
O=C(COC(=O)C1CCN(S(=O)(=O)c2cccs2)CC1)NCc1ccc(F)cc1	x	i	0.99	x	x	x	97
O=C(COc1ccccc1F)NCc1ccc(-n2cccc2)cc1	x	x	x	38	86	-7	98
O=c1cc(CN2CCN(c3ccc(F)cc3)CC2)nc2sccn12	-3.2	i	1	1	91	-6	100
